GIV Gai3 FP – inhibitors of GIV peptide binding to Galpha-i3, primary screen, biochemical, fluorescence polarization, FITC-GIV GBA peptide, rat Galphai3; percent of control (FP), % (test concentration not listed); AID 1224905, 2016; 90 min; stronger effect = lower value; scaled: aluminum fluoride 0%, vehicle 100%; 210,000 compounds, 0.42% hits; Guanine nucleotide-binding protein G(i) subunit alpha-3 (Rattus norvegicus), P08753;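 active means replicate mean at 85% of control or lower, very high polarization wells dropped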;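 further: wells of about 15 µL received 100 nL stock; the first replicate is given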
Target sequence (P08753 whole entry, looked up): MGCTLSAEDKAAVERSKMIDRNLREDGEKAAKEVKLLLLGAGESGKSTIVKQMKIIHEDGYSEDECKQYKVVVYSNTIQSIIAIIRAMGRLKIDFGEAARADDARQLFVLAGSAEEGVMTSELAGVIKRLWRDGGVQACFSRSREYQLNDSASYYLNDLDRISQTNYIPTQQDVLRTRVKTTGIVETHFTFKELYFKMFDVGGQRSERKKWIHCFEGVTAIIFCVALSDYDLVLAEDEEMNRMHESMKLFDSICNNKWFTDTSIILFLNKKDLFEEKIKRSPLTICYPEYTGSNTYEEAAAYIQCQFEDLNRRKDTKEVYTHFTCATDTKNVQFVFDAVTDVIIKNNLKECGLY
Sa growth 42C – S. aureus growth inhibition at 42 and 30 °C, primary screen, LtaS inhibitor project, RN4220, two temperatures; OD600, 20 h, 42 °C; stronger effect = lower value; relative growth, % (test concentration not listed); 170,000 compounds, 0.53% hits; AID 720641, 2013;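 active means growth at 42 °C up to 50% and 20 or more points under that at 30 °C, or under 10% at both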;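 further: 300 nL library stock went into each well; scaled to the means of positive and negative controls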
HCMV UL50-53 inh – inhibitors of HCMV UL50-UL53 interaction, biochemical, HTRF; HCMV UL50-UL53 nuclear egress complex (human cytomegalovirus); normalized percent inhibition; inhibition, % (concentration not given with the values); 190,000 compounds, 0.15% hits;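 active means both replicates at 50% or more, plus weaker picks with an unusually low signal ratio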;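 further: stock transfer was 100 nL into about 20 µL; 0% = negative control wells and 100% = wells with untagged competitor protein; inactives centre near -12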
Sa growth 42C second temp – also measured in Sa growth 42C; calls as there; relative growth, %; measured here: growth at 30 °C;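 optical density after 20 h as mean of two plates; 100% = untreated growth and lower means inhibition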
Starred values were filed as active, the others as inactive; nt = no result given; & = joins results of further samples.

SMILES	GIV Gai3 FP	Sa growth 42C	Sa growth 42C second temp	HCMV UL50-53 inh
CCOC(=O)C(C#N)C(Cc1ccccc1)C1CCOC(C)(C)C1 (stereo unspecified)	92	122	83	-5
CCOc1cc2[nH]c(=O)n(CCc3ccc(OC)c(OC)c3)c(=O)c2cc1OCC	102	102	93	-8
C=CCNS(=O)(=O)/C=C/c1ccccc1	nt	119	100	8
O=S(=O)(Nc1cc(F)ccc1F)c1ccc2[nH]c3c(c2c1)CCCC3	105	69	120	nt
Cc1ccc(CNC(=O)N2CCC(CN3CCC(C)CC3)CC2)cc1	102	93	85	nt
CCCc1c(C)nc(SCC(C)C)[nH]c1=O	108	128	102	-10
Cc1cccc(N/C(N)=N/c2nc(C(F)(F)F)cc(=O)[nH]2)c1	97	112	94	-7
COc1ccc(C2C3=C(CC(C)(C)CC3=O)Nc3onc(C)c32)c(OC)c1 (stereo unspecified)	106	nt	nt	-13
COc1ccccc1OCC(=O)NCC(c1ccccc1Cl)c1c[nH]c2ccccc12 (stereo unspecified)	104	nt	nt	3
c1ccc(CN2CN=C(Nc3nc4ccccc4o3)NC2)cc1	102	97	83	nt
CCOc1ccccc1NC(=O)C(=O)c1cc(C)n(-c2cccc(C)c2C)c1C	101	77	90	3
Cc1ccc(NC(=O)CNCC(C)(C)N2CCOCC2)c(Cl)c1	nt	96	96	-6
Nc1nc2c(c(=O)[nH]1)N(C=O)C(CNc1ccc(C(=O)N[C@@H](CCC(=O)O)C(=O)O)cc1)CN2 (stereo partly specified)	nt	104	105	14&-7
COC(=O)c1ccc(C(=O)OC)c(NC(=O)CSc2nc(C)nc3sc4c(c23)CCCC4)c1	108	nt	nt	12
CSc1cccc(NS(=O)(=O)c2ccc3[nH]cc(C(=O)N4CCCCCC4)c(=O)c3c2)c1	102	98	86	-22
O=C(Nc1nncs1)c1ccc(F)cc1	98	104	91	-29
CCN(CC)S(=O)(=O)c1ccc(C(=O)NCCSc2c(-c3ccc(F)cc3)[nH]c3ccccc23)cc1	108	89	83	-5
COC(=O)c1csc(S(=O)(=O)Nc2ccc(Cl)cc2)c1OC	98	96	95	7
O=C(O)CCC(=O)N1N=C(c2c(-c3ccccc3)c3cc(Br)ccc3[nH]c2=O)CC1c1ccccc1Cl (stereo unspecified)	101	nt	nt	-12
COC(=O)Cn1cc(C2C(C#N)=C(N)OC3=C2C(=O)CC(C)(C)C3)c2ccccc21 (stereo unspecified)	98	89	85	-14
O=C(COCc1cc(-c2ccco2)on1)NCC1CCCO1 (stereo unspecified)	107	92	84	-36
O=C(CSc1ccc(F)c(Cl)c1)c1ccc2c(c1)OCCO2	99	82	105	0
CCC(=O)c1ccc2c(c1)N(CCCN(C)C)c1ccccc1S2	103	nt	nt	-62
Cn1c(C(=O)N(Cc2ccccc2)Cc2ccccc2)cc2c(=O)n3ccccc3nc21	103	nt	nt	-25
Cn1c(=O)n(C)c2cc(CNCc3ccccc3)ccc21	102	102	83	-24
COC(=O)C1=C(C)N(Cc2ccccc2)C(=O)/C1=C\c1cccc(Cl)c1	51*	103	84	nt
Cc1ccc2c(c1)-c1onc(C(=O)N3CCN(c4cc(Cl)ccc4C)CC3)c1CO2	107	99	101	nt
Nc1ncnc2c1ncn2[C@@H]1O[C@H](COP(=O)(O)OP(=O)(O)OP(=O)(O)OP(=O)(O)OC[C@@H]2O[C@H](n3cnc4c(N)ncnc43)C(O)[C@@H]2O)[C@H](O)C1O (stereo partly specified)	107	nt	nt	-13
COc1ccccc1NC(=O)c1cc2c(=O)oc3ccccc3c2n1C	106	nt	nt	-15
Cc1ccccc1OCc1nnc(SCc2cc(=O)c3cccc(F)c3[nH]2)n1C	103	91	85	nt
CC(=O)OC1=C(C(=O)c2ccccc2)N(C)S(=O)(=O)c2ccccc21	97	51	38	nt
O=C(O)CCCC(=O)Nc1nc2n(n1)C(c1ccc(Cl)cc1)C=C(c1ccccc1)N2 (stereo unspecified)	87	nt	nt	-54
Cc1ccc(N2C(=O)/C(=C\c3ccc4c(c3)OCO4)N=C2SCC#N)cc1	nt	100	97	0
COc1cc(S(=O)(=O)Nc2ccc(NC(C)=O)cc2)ccc1F	101	97	112	10
CC(C)(C)C(=O)CC1(O)C(=O)N(Cc2ccccc2)c2ccccc21 (stereo unspecified)	99	104	99	-7
Cc1ccc(CNC(=O)Cc2ccc(NC(=O)N3CCSc4ncccc43)cc2)cc1	107	107	87	nt
NC(=O)C1CCN(C2CC(=O)N(Cc3ccc4c(c3)OCO4)C2=O)CC1 (stereo unspecified)	nt	95	99	19
NS(=O)(=O)c1ccc(NC(=O)CN2C(=O)c3cccnc3Sc3ccccc32)cc1	107	nt	nt	-18
Cc1ccccc1Cn1c(=O)n(CCCCC(=O)NC2CCCC2)c(=O)c2ccccc21	97	103	84	nt
Cc1ccc2nc(-c3ccccn3)[nH]c2c1	nt	103	92	1

An excerpt of these results, as labelled records.
Cc1ccc2c(c1)-c1onc(C(=O)N3CCN(c4cc(Cl)ccc4C)CC3)c1CO2
  GIV Gai3 FP: 107	Sa growth 42C: 99	Sa growth 42C second temp: 101	HCMV UL50-53 inh: nt

CC(=O)OC1=C(C(=O)c2ccccc2)N(C)S(=O)(=O)c2ccccc21
  GIV Gai3 FP: 97	Sa growth 42C: 51	Sa growth 42C second temp: 38	HCMV UL50-53 inh: nt

Next compounds follow:
SMILES	GIV Gai3 FP	Sa growth 42C	Sa growth 42C second temp	HCMV UL50-53 inh
O=C(CN1C(=O)c2ccccc2S1(=O)=O)N1CCCC1c1ccc2c(c1)OCCCO2 (stereo unspecified)	nt	100	98	17
CCc1noc(-c2ccccc2NC(=O)C2CC(=O)N(c3ccccc3)C2)n1 (stereo unspecified)	112	nt	nt	-13
CCN(CC)C(=O)c1cccc(OC)c1	nt	93	86	-9
O=C(NCN1CCN(c2ccccn2)CC1)c1cnccn1	nt	92	87	-25
COc1ccc2cc(C(=O)NCc3ccc4c(c3)CCN4C(=O)c3ccc(F)cc3)[nH]c2c1	101	118	103	nt
CC(=O)N1N=C(c2c(-c3ccccc3)c3cc([N+](=O)[O-])ccc3[nH]c2=O)CC1c1cccc(Br)c1 (stereo unspecified)	101	nt	nt	13
O=C(Nc1cccc(Br)c1)c1ccc(Nc2ccnc(-c3ccccc3)n2)cc1	105	nt	nt	-13
O=c1/c(=C/c2ccc(-c3ccc(Br)cc3)o2)sc2nc3ccccc3n12	113	nt	nt	-13
COc1ccc(C(=O)CSc2nnc(-c3cc4cc(Cl)ccc4o3)n2C)cc1	115	108	103	5
CCOC(=O)c1cccc(NC(=O)C2CCN(S(=O)(=O)c3cn(C)cn3)CC2)c1	102	84	90	nt
O=C(CCN1C(=O)/C(=C\c2cccs2)SC1=S)NC1=NCCS1	96	122	96	-45
CCC(Sc1nc2ncccc2c(=O)n1-c1ccccc1)C(=O)Nc1ccc(OC)cc1 (stereo unspecified)	105	108	90	nt
Cc1ccc(-c2nc(-c3cc4cccc(OCc5ccccc5F)c4oc3=O)no2)cc1	103	108	81	-16
Cc1ccccc1S(=O)(=O)NCCn1c(-c2ccncc2)nc2cccnc21	104	nt	nt	-15
Cc1cc(Cl)ccc1NS(=O)(=O)c1ccc2c(c1)[C@H]1C=CC[C@H]1[C@@H](c1ccccc1)N2	131	109	81	nt
O=C(NC1CC1)/C(=C/c1ccc[nH]1)NC(=O)c1ccccc1	106	69	96	0
CC1(C)CC2(CC(c3ccccc3F)c3cc(Cl)c(O)cc3O2)NC(=S)N1 (stereo unspecified)	nt	63	34	-10
O=C(Oc1cccc(N2CCOCC2)c1)c1ccc(CSC(=S)N2CCSCC2)cc1	106	118	93	-2
Cc1ccc(C(=O)CSc2ncn[nH]2)cc1	96	87	85	-7
O=C1/C(=C\c2ccco2)SC(=S)N1Cc1ccccc1	101	88	73	-15

Laid out differently: 20 of the compounds above.
Compound | GIV Gai3 FP | Sa growth 42C | Sa growth 42C second temp | HCMV UL50-53 inh
NS(=O)(=O)c1ccc(NC(=O)CN2C(=O)c3cccnc3Sc3ccccc32)cc1 | 107 | nt | nt | -18
Cc1ccccc1Cn1c(=O)n(CCCCC(=O)NC2CCCC2)c(=O)c2ccccc21 | 97 | 103 | 84 | nt
Cc1ccc2nc(-c3ccccn3)[nH]c2c1 | nt | 103 | 92 | 1
O=C(CN1C(=O)c2ccccc2S1(=O)=O)N1CCCC1c1ccc2c(c1)OCCCO2 (stereo unspecified) | nt | 100 | 98 | 17
CCc1noc(-c2ccccc2NC(=O)C2CC(=O)N(c3ccccc3)C2)n1 (stereo unspecified) | 112 | nt | nt | -13
CCN(CC)C(=O)c1cccc(OC)c1 | nt | 93 | 86 | -9
O=C(NCN1CCN(c2ccccn2)CC1)c1cnccn1 | nt | 92 | 87 | -25
COc1ccc2cc(C(=O)NCc3ccc4c(c3)CCN4C(=O)c3ccc(F)cc3)[nH]c2c1 | 101 | 118 | 103 | nt
CC(=O)N1N=C(c2c(-c3ccccc3)c3cc([N+](=O)[O-])ccc3[nH]c2=O)CC1c1cccc(Br)c1 (stereo unspecified) | 101 | nt | nt | 13
O=C(Nc1cccc(Br)c1)c1ccc(Nc2ccnc(-c3ccccc3)n2)cc1 | 105 | nt | nt | -13
O=c1/c(=C/c2ccc(-c3ccc(Br)cc3)o2)sc2nc3ccccc3n12 | 113 | nt | nt | -13
COc1ccc(C(=O)CSc2nnc(-c3cc4cc(Cl)ccc4o3)n2C)cc1 | 115 | 108 | 103 | 5
CCOC(=O)c1cccc(NC(=O)C2CCN(S(=O)(=O)c3cn(C)cn3)CC2)c1 | 102 | 84 | 90 | nt
O=C(CCN1C(=O)/C(=C\c2cccs2)SC1=S)NC1=NCCS1 | 96 | 122 | 96 | -45
CCC(Sc1nc2ncccc2c(=O)n1-c1ccccc1)C(=O)Nc1ccc(OC)cc1 (stereo unspecified) | 105 | 108 | 90 | nt
Cc1ccc(-c2nc(-c3cc4cccc(OCc5ccccc5F)c4oc3=O)no2)cc1 | 103 | 108 | 81 | -16
Cc1ccccc1S(=O)(=O)NCCn1c(-c2ccncc2)nc2cccnc21 | 104 | nt | nt | -15
Cc1cc(Cl)ccc1NS(=O)(=O)c1ccc2c(c1)[C@H]1C=CC[C@H]1[C@@H](c1ccccc1)N2 | 131 | 109 | 81 | nt
O=C(NC1CC1)/C(=C/c1ccc[nH]1)NC(=O)c1ccccc1 | 106 | 69 | 96 | 0
CC1(C)CC2(CC(c3ccccc3F)c3cc(Cl)c(O)cc3O2)NC(=S)N1 (stereo unspecified) | nt | 63 | 34 | -10

Continued.
SMILES	GIV Gai3 FP	Sa growth 42C	Sa growth 42C second temp	HCMV UL50-53 inh
O=C(COC(=O)CSc1cc(Cl)ccc1Cl)Nc1ccc(F)c(F)c1F	nt	110	81	-29
CC(C)NC(=S)N/N=C/c1ccc2c(c1)OCCO2	nt	96	90	-63
COc1ccccc1N1CCN(S(=O)(=O)c2c(C)sc3ncn(CC(=O)N(C)c4ccc(Cl)cc4)c(=O)c23)CC1	104	81	90	-5
CSc1nnc(C2CCCN2C(=O)N(c2ccccc2)c2ccccc2)n1C (stereo unspecified)	96	95	79	4
CCOc1ccc(-n2cc(C(=O)Nc3cccc4ncccc34)nn2)cc1	101	nt	nt	-16
O=[N+]([O-])c1cccc(C2Oc3ccccc3C3CC(c4ccc(Br)cc4)=NN32)c1 (stereo unspecified)	101	nt	nt	-6
COc1ccc(CNC(=O)COCc2cc(-c3cccs3)on2)cc1	100	123	93	nt
CCN(CC)C(=O)c1cc2c(=O)n3cccc(C)c3nc2s1	105	109	88	nt
O=C1/C(=C/N2CCCCC2)SC(=S)N1c1ccc(F)cc1	nt	84	95	-17
O=c1[nH]cc(S(=O)(=O)N2CCCC2)c(=O)[nH]1	101	nt	nt	-27
Fc1ccc(COc2cccc3ccc(N4CCCC4)nc23)cc1	102	nt	nt	-34
COc1ccc(OC)c(S(=O)(=O)Nc2cc3c(cc2Oc2ccccc2)n(C)c(=O)c(=O)n3C)c1	98	nt	nt	-27
CCOc1ccccc1NC(=O)c1c(NC(=O)c2ccccc2)sc2c1CCCC2	107	99	88	-19
COc1cccc(-n2cc(C(=O)N(CC(C)C)CC(C)C)c3ccccc3c2=O)c1	101	87	74	nt
COc1ccc2[nH]c3c(=O)n(Cc4ccc(C(=O)NC5CC5)cc4)c(=S)[nH]c3c2c1	96	106	94	nt
c1nc2ccc(Cc3ccc4nc[nH]c4c3)cc2[nH]1	106	69	65	nt
Cc1ccccc1-c1noc(-c2ccccc2OCC(=O)Nc2nc(C(C)C)cs2)n1	98	nt	nt	-20
Cc1cc(=O)oc2n[nH]c(CSc3ccc(Cl)cc3)c12	100	77	74	-17
Cc1ccc(-c2ccc(O)cc2)cc1	nt	47*	93*	-9
COc1cc2ccccc2cc1C(=O)N1CCN(c2nc3ccc(F)cc3s2)CC1	103	117	92	nt
CCc1ccc(/C=C2/C(=O)N(C3CCCCC3)C(=S)N2C)cc1	103	72	94	nt
O=c1c(/C=N\O)coc2ccc(F)cc12	112	nt	nt	-2
Cc1cc(C)c2c(c1)/C(=N\N=c1\sc3ccccc3n1C)C(=O)N2	nt	119	97	-14
Cc1c(C(=O)Nc2ccc(F)cc2F)nnn1-c1ccccc1Br	102	135	81	-14

The order is random. Share with any hit: about 0.79%.
